Beta cell apopt: blocks beta cell apoptosis. INS-1E cytokine-induced death, ATP luminescence, 48 h; percent of positive-control rescue, neutral wells zero. protection from apoptosis, % (concentration not given with the values). actives 0.8% (n = 300,000);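 active = all replicates at 75% or more, or half of them and the mean; inconclusive = half reach 75% but not the mean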;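 note: 0% = cytokine-treated negative control wells and 100% = positive control rescue; higher means more ATP so stronger rescue from cytokine killing; wells of about 40 µL received 100 nL stock; the first replicate is given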
ALR inh: inhibitors of human sulfhydryl oxidase ALR; P55789; purified ALR, DTT oxidation, H2O2 HRP-luminol luminescence; inhibition, % (no concentration beside the values); actives 3.8% (n = 290,000);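 active = mean and each replicate at 75% or more; inconclusive = only one of the two met; inactive = neither met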;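 note: stock transfer was 7.5 nL into about 7.5 µL; 0% = neutral wells and 100% = wells with inactivated enzyme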
Target sequence (P55789 whole entry, looked up): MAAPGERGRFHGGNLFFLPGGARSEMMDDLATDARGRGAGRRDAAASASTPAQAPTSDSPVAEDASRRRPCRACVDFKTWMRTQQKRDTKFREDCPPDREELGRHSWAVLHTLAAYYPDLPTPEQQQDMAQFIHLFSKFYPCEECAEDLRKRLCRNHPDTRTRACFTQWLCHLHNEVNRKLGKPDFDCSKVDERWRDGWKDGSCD
Ecoli rRNA inh: inhibits bacterial ribosomal RNA function over humanized ribosomes | actives 1.6% (n = 350,000) | E. coli WT GFP vs humanized-ribosome RFP mutants, fluorescence, 24 h; hits give low values; DMSO median 0, no signal -100 | AID 720706 | GFP signal change (wild-type ribosome), % (test concentration not listed);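 active = significant combined selectivity score with lowered wild-type GFP, culture density cut under 30%, mutant RFP and density less affected; inactive = any of these conditions unmet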; note: one replicate is shown; some compounds called inactive have numbers as strong as hits
T cruzi repl: blocks replication of Trypanosoma cruzi; actives 1.4% (n = 300,000); inhibition, % (no concentration beside the values); T. cruzi beta-gal in NIH3T3, luminescence, 90 h;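 active = mean inhibition across valid replicates above about 55%, limit read from the data; inconclusive = mean below that limit but half or more replicates reach it; inactive = mean below it, under half of replicates reach it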;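 note: signal also drops with host cell toxicity which is not excluded here; 0% = plate median of DMSO wells and 100% = zero luminescence signal; higher percent means less beta-gal luminescence so fewer parasites; stock transfer was 50 nL into about 50 µL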
Calb FLC: C. albicans growth modulation with fluconazole; growth inhibition, % (no concentration beside the values); AID 1979; actives 0.57% (n = 300,000); C. albicans CaCi-2 (fluconazole-resistant clinical isolate) + fluconazole, Alamar Blue growth, 48 h;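 active = most replicates above 75%; inconclusive = exactly half above 75%; inactive = most below 75%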;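 note: all wells also contain fluconazole at 8 µg/ml as a sub-toxic cotreatment; 0% = median of DMSO wells and 100% = median of geldanamycin control wells; wells of about 8 µL received 7.5 nL stock; the first replicate is given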
FGF22 binding: FGF22 (human) thermal shift binding; Q9HCT0; recombinant FGF22 thermal shift, SYPRO orange fluorescence; percent of sucrose octasulfate shift, DMSO zero; calls only at 9.99 µM; actives 1.5% (n = 340,000);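 active = melting point raised past a set limit in the mean and every replicate; inconclusive = no clear call; three in four hits are not shown here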
Target sequence (Q9HCT0 whole entry, looked up): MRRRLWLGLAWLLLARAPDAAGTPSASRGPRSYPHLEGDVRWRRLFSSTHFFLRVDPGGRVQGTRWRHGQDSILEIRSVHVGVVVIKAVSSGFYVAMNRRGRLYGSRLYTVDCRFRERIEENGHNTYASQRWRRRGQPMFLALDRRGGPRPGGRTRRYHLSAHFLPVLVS
AF4-AF9 inh: inhibitors of human MLL-AF4/AF9 interaction. P42568. AlphaScreen, biotin-AF4 peptide binding to FLAG-AF9. actives 0.47% (n = 350,000). inhibition, % at 10 µM;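 active = every replicate reaching a set inhibition limit, whatever the replicate mean, cut at about 25% in these data; inconclusive = mean inhibition reaches that limit but some replicates miss it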;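 note: 0% = plate neutral control median and 100% = total signal loss; the record names both 10 and 1 µM as test concentration; the first replicate is given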
Target sequence (P42568 whole entry, looked up): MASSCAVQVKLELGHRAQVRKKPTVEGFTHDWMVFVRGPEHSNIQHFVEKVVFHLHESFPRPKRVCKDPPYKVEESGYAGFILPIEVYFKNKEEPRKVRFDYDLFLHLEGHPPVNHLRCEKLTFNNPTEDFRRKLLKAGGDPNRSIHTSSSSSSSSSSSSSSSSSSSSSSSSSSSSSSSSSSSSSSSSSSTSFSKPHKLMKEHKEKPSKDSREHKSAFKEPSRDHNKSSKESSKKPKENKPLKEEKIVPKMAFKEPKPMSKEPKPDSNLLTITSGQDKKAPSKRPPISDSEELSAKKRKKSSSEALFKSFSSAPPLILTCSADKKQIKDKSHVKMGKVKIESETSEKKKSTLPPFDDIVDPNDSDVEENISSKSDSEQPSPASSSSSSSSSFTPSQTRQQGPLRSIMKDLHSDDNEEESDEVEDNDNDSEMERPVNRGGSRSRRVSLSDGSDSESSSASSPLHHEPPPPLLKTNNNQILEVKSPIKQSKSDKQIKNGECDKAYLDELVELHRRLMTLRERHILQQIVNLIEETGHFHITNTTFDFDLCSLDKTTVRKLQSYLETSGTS
RanGTP-Impb inh: inhibitors of RanGTP-importin-beta interaction, primary screen, biochemical, FRET, CFP-Ran, YFP-importin-beta, homogeneous. cell-free CFP-Ran/YFP-importin-beta FRET ratio. inhibition, % (concentration not given with the values). actives 1.1% (n = 300,000). AID 2216;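 active = most replicates above 15%; inconclusive = exactly half above 15%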;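 note: 0% = DMSO wells and 100% = Ran loaded with GDP instead of GTP; wells of about 40 µL received 100 nL stock; the first replicate is given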
Ecoli rRNA inh OD600: also measured in Ecoli rRNA inh; calls as there; OD600 change, %; measured here: OD600 growth;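 optical density of the mix in the first replicate; 0 = DMSO median and -100 = no signal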
Ecoli rRNA inh RFP: also measured in Ecoli rRNA inh; calls as there; RFP signal change, %; measured here: RFP humanized mutant strains;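 first replicate; 0 = DMSO median and -100 = no signal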
* hit, by the source's call; i = inactive; u = inconclusive; x = no result given. The list is partial; the hit share may differ from the screen's.

SMILES | Beta cell apopt | ALR inh | Ecoli rRNA inh | Ecoli rRNA inh OD600 | Ecoli rRNA inh RFP | T cruzi repl | Calb FLC | FGF22 binding | AF4-AF9 inh | RanGTP-Impb inh
Cc1noc(C)c1C(=O)Nc1nc2ccc(S(C)(=O)=O)cc2s1 | 9 | 5 | 5 | 9 | -1.9 | 0 | -8 | i | -2.3 | 0.5
CC(Oc1ccc(F)cc1)C(O)CCN(C)C (stereo not drawn) | -4 | -13 | 11 | 10 | -0.6 | 23 | -13 | i | -1.5 | 7.7
O=c1ccc(Cc2ccc(Cl)cc2)n[nH]1 | -14 | 0 | 5 | 4 | -0.3 | -12 | -3 | i | 3.4 | 0.1
CS(=O)(=O)Cc1ccc(C(=O)N2CCN(C(=O)c3cccs3)CC2)cc1 | 8 | -14 | 9 | 15 | -2.6 | x | x | i | -11 | x
CCN(CC(=O)Nc1ccc(NC(C)=O)cc1)C(=O)CSCc1c(C)noc1C | 3 | 32 | 0 | 7 | -1.5 | -10 | 4 | i | 0.2 | 0.0
COc1ccccc1CC(=O)NNS(=O)(=O)c1ccc([N+](=O)[O-])cc1 | 1 | -6 | 7 | -3 | -8.2 | -7 | -1 | i | -1.4 | 0.1
CC(Nc1nc(-c2ccc(F)cc2)cs1)c1nc2cc(Cl)c(N3CCCCC3)cc2n1CCOCCO (stereo not drawn) | 3 | -3 | -2 | -4 | -4.4 | 27 | 3 | i | -1.0 | 7.2
CCC(C)c1ccc(O)c(N)c1 (stereo not drawn) | 0 | -6 | x | x | x | 6 | -10 | x | x | 7.0
CCN1CCN(CCCNC(=O)CS(=O)(=O)Cc2nc(-c3ccccc3C)oc2C)CC1 | 3 | -17 | 19 | 13 | 5.0 | 18 | -6 | i | 1.7 | 0.5
COc1ccc(OC)c(C(c2nnnn2C(C)(C)C)N2CCc3ccccc3C2)c1 (stereo not drawn) | 0 | -7 | x | x | x | 63* | -3 | x | x | 3.6
Cc1cc(C)n(CCC(=O)N/N=C/c2ccc(O)cc2)n1 | -5 | 99* | x | x | x | -15 | 1 | x | x | -1.6
c1ccc(C2=NNC(=NCc3ccc4c(c3)OCO4)SC2)cc1 | -1 | 49 | x | x | x | -8 | -25 | x | x | -0.5
Cc1ccc(C(=O)Nc2cccc(C(O)c3ccccc3)c2)cc1 (stereo not drawn) | 6 | -1 | -33* | -21* | -5.8* | x | -5 | i | 3.0 | 0.3
Cc1ccc(S(=O)(=O)c2nc(S(C)(=O)=O)sc2N2CCOCC2)cc1 | -6 | -3 | 11 | 10 | 1.5 | 38 | -2 | i | 1.0 | -3.5
Cc1ccc(CNc2cc(C(=O)O)ccc2C)s1 | -2 | x | -1 | -5 | -0.9 | -8 | 4 | i | -0.5 | -3.8
CC(C)C(c1nnnn1Cc1ccccc1)N(CCCO)Cc1cc2cc3c(cc2[nH]c1=O)OCO3 (stereo not drawn) | -1 | -14 | x | x | x | 23 | 4 | x | x | -59
O=C(O)c1ccc(-c2nnc(-c3ccccc3)o2)cc1 | 14 | -1 | 10 | 1 | 2.6 | -1 | -4 | i | -15 | 1.9
COc1ccc(S(=O)(=O)N2CC(C(=O)O)Oc3ccc(Cl)cc32)cc1 (stereo not drawn) | -3 | -6 | 5 | -2 | 0.4 | -2 | 6 | i | -1.2 | 2.5
CN1/C(=C/C(=O)CSc2ccccc2C(=O)O)C(C)(C)c2ccccc21 | 42 | 10 | -8 | -6 | 21 | 3 | -3 | i | -7.1 | -6.1
O=C(CCCCn1c(=O)c2ccccc2n(CC(=O)Nc2cccc(F)c2)c1=O)NCc1ccco1 | -5 | -8 | x | x | x | 7 | -5 | x | x | 2.3
Nc1ccc(C(=O)Nc2ccccc2C(=O)O)cc1 | -3 | x | x | x | x | 4 | -2 | x | x | -2.0
COc1cc(CN2CCN(c3ccccc3F)CC2)cc(OC)c1O | -6 | -9 | x | x | x | -4 | 12 | x | x | -0.9
COc1ccccc1NC(=O)CCC(=O)OCC(=O)c1ccc(C)c([N+](=O)[O-])c1 | x | u | 17 | 17 | -3.2 | 1 | -3 | i | -2.2 | -1.1
Cc1ccc(CNC(=O)CN(C(=O)C2(C)CC(=O)N=C3C=CC=CN32)c2cccc(C)c2C)cc1 (stereo not drawn) | -6 | 1 | 27 | 10 | 1.2 | 11 | -5 | i | 0.6 | 1.5
CCOC(=O)C1=C(COC(=O)CCNS(=O)(=O)c2ccc(NC(C)=O)cc2)NC(=O)NC1C (stereo not drawn) | -2 | -5 | 6 | 4 | -1.9 | -5 | 2 | i | -1.4 | 2.4

ALR inh: entries above that show a hit
| SMILES | ALR inh | Ecoli rRNA inh | Ecoli rRNA inh OD600 | Ecoli rRNA inh RFP | FGF22 binding | AF4-AF9 inh | RanGTP-Impb inh |
| --- | --- | --- | --- | --- | --- | --- | --- |
| Cc1cc(C)n(CCC(=O)N/N=C/c2ccc(O)cc2)n1 | 99* | x | x | x | x | x | -1.6 |

(list continues)
SMILES | Beta cell apopt | ALR inh | Ecoli rRNA inh | Ecoli rRNA inh OD600 | Ecoli rRNA inh RFP | T cruzi repl | Calb FLC | FGF22 binding | AF4-AF9 inh | RanGTP-Impb inh
CC(C)CN(CC(C)C)c1nc(N)c(C#N)c(CC#N)c1C#N | 4 | -5 | x | x | x | 16 | 0 | x | x | u
O=C(/C=C/c1ccc(Cl)cc1)Nc1ccc(N2CCCCC2)cc1 | -2 | -2 | x | x | x | -16 | 28 | x | x | 9.4
COc1ccc(N(CC(=O)NCCSc2ccccn2)S(C)(=O)=O)cc1 | 0 | 0 | 9 | 4 | -3.4 | -4 | -2 | x | x | 1.7
NC(=O)CN1CCOCCOCCN(CC(N)=O)CCOCC1 | 2 | -3 | x | x | x | -2 | -1 | x | x | 4.2
COC(=O)CCC(=O)Nc1nc(-c2ccccc2)cs1 | 4 | -3 | 2 | -1 | 0.3 | 3 | -4 | i | -1.0 | 4.2
CCCCN1C(=S)NC[C@@H]1Cc1cccc2ccccc12 | 2 | x | -49 | -74 | -14 | -5 | -14 | i | -6.4 | 0.6
C/C(=N/NS(=O)(=O)c1ccccc1)c1ccc(NC(=O)C(F)(F)F)cc1 | -24 | x | 20 | 16 | 13 | -6 | 9 | i | 1.3 | 2.4
Cc1cc(/C=C2/SC(=O)N(CC(=O)N3CCCC3)C2=O)c(C)n1C | -3 | x | -1 | -6 | 0.1 | -11 | 5 | i | 3.4 | -0.4
CC(=O)c1cccc(S(=O)(=O)NCCC(=O)NC2CCCCCC2)c1 | -4 | x | 3 | 10 | -1.8 | x | x | i | 1.5 | x
Cc1ccc(S(=O)(=O)N(Cc2cc3cccc(C)c3[nH]c2=O)c2ccccc2)cc1 | 6 | -4 | x | x | x | -49 | u | x | x | 0.2
COc1ccc(CNC(=O)CCn2cccc2)cc1 | -6 | 8 | x | x | x | -6 | -12 | x | x | 0.8
O=S(=O)(c1ccc(Br)s1)N1CCN(c2ncccn2)CC1 | -7 | -3 | 18 | 14 | -7.2 | -6 | 1 | i | 7.3 | u
CNC(=S)Nc1cccc(C(=O)OC)c1 | -1 | -6 | x | x | x | -8 | -1 | i | 1.0 | -3.7
CN(CC(O)CON=C1c2ccccc2-c2ccccc21)S(=O)(=O)c1ccc(Br)cc1 (stereo not drawn) | 8 | x | x | x | x | 44 | 15 | x | x | 8.3
Cc1ccc(OCc2ccc(C(=O)NCC3CCCO3)cc2)cc1C (stereo not drawn) | -15 | -6 | 2 | -26 | -5.0 | x | x | i | 1.3 | x
NC12CC3CC(C1)CC(O)(C3)C2 | -4 | -12 | x | x | x | -10 | -1 | x | -1.3 | -0.8
CCn1cc(C(=O)NCC(OC)OC)c(=O)c2cc(S(=O)(=O)N3CCCC3)ccc21 | -4 | -2 | -1 | 0 | -0.6 | 9 | -3 | i | -0.2 | 0.7
CCn1cc(C(=O)O)c(=O)c2cc(F)c(N3CCN(C(=S)NC(=O)c4ccccc4C)CC3)cc21 | -8 | 2 | -52 | -80 | -30 | 19 | -18 | i | 4.9 | 1.4
CC(=O)Nc1ccccc1NC(=O)C(F)(F)F | -4 | -1 | x | x | x | -2 | 25 | x | x | -0.8
COc1ccc(CCNC(=O)CCNC(=O)c2ccc(Br)cc2)cc1OC | -5 | x | x | x | x | -6 | -10 | x | x | 2.4
COc1ccc(NC(=S)N/N=C/c2cccn2Cc2ccccc2F)cc1 | 4 | -25 | -9 | 7 | 1.0 | 50 | 15 | i | -3.1 | 1.3
O=C(COc1coc(CN2CCc3ccccc32)cc1=O)N1CCCCC1 | x | u | 5 | 7 | 2.3 | 0 | 32 | i | 1.9 | 6.9
CC(C(=O)O)N(c1ccccc1Cl)S(C)(=O)=O (stereo not drawn) | -4 | 1 | 13 | 13 | 2.8 | x | x | i | -45 | x
Cn1cc(C(=O)N/N=C/C2=C(N3CCOCC3)C(=C/c3ccc([N+](=O)[O-])cc3)/CC2)ccc1=O | -3 | x | 11 | 0 | -2.7 | 4 | 2 | i | -25 | -2.3
Cc1csc(NC(=O)c2cc3c(s2)CCCC3)n1 | 14 | 23 | x | x | x | 19 | -7 | x | x | -0.3
More entries.
SMILES | Beta cell apopt | ALR inh | Ecoli rRNA inh | Ecoli rRNA inh OD600 | Ecoli rRNA inh RFP | T cruzi repl | Calb FLC | FGF22 binding | AF4-AF9 inh | RanGTP-Impb inh
CCSc1nc2c(c(=O)[nH]1)C(C(C)C)C(C#N)=C(N)O2 (stereo not drawn) | -2 | x | 3 | 10 | -0.1 | -11 | -3 | i | -1.6 | 9.6
O=C(CSc1nnc(-c2cccnc2)n1Cc1ccco1)c1ccc(Cl)c(Cl)c1 | -13 | 98* | x | x | x | -8 | -2 | x | x | 5.1
Cc1cccc(NC(=S)N2CCN(S(=O)(=O)c3cccc(F)c3)CC2)c1 | -1 | -4 | -9 | -16 | 0.6 | -7 | -2 | i | 4.4 | -2.3
COc1ccc(-c2ccc(SCC(=O)c3cccs3)nn2)cc1 | -2 | 36 | -3 | -7 | 1.1 | 9 | -26 | x | -0.8 | -5.3
COc1ccc(/C=N/N(CCC(=O)NC(C)(C)C)C2=NS(=O)(=O)c3ccccc32)cc1 | 3 | -4 | 9 | 13 | 0.4 | 0 | -6 | i | -1.2 | -2.0
CC(NC(=O)C1CCN(C(=O)[C@@H]2Cc3ccccc3CN2C(=O)OC(C)(C)C)CC1)c1ccccc1 (stereo partly drawn) | 1 | 0 | 6 | -5 | -3.2 | 18 | -7 | i | 2.2 | -2.8
COCCNC(=O)c1ccc2c3n(nc2c1)-c1ccccc1CO3 | 17 | 1 | -19 | -20 | -6.7 | 10 | -12 | i | 1.2 | 0.0
S=c1[nH]nc(-c2ccc(Br)cc2)n1Cc1ccccc1 | 5 | 2 | -40 | -58 | -4.0 | -8 | -7 | i | -5.2 | x
CN(C)/N=C/c1cn(-c2ccccc2)nc1-c1cccnc1 | 1 | 56 | 17 | 8 | -1.2 | 17 | -5 | i | 13 | -6.4
Cc1ccc(NS(=O)(=O)c2ccc(C(=O)N3CCN(S(=O)(=O)c4ccccc4)CC3)cc2)cc1 | 36 | -4 | 0 | -3 | 1.6 | 1 | -9 | i | 3.4 | -1.8
O=C(NNC(=O)c1cccc(Br)c1)C(=O)N1CCCCC1 | 0 | 0 | 2 | 2 | -4.8 | -10 | -5 | i | -6.0 | 0.2
